From PubChem
VDR inhibitor: blocks the human vitamin D receptor; P11473; VDR-SRC2-3 peptide fluorescence polarization, 2 h; Potency, µM, for the others: max response, negative = inhibition, actives largely listed as inhibitors; hit rate 0.93% among 400,000; AID 504847; active means well fitted inhibition curve with a large enough effect; inconclusive means small, poorly fitted or top-dose-only effect, or another doubt; inactive means no such curve, though single readings can be large or run the other way; further: series mostly up to about 120 µM
Target sequence (P11473 whole entry, looked up): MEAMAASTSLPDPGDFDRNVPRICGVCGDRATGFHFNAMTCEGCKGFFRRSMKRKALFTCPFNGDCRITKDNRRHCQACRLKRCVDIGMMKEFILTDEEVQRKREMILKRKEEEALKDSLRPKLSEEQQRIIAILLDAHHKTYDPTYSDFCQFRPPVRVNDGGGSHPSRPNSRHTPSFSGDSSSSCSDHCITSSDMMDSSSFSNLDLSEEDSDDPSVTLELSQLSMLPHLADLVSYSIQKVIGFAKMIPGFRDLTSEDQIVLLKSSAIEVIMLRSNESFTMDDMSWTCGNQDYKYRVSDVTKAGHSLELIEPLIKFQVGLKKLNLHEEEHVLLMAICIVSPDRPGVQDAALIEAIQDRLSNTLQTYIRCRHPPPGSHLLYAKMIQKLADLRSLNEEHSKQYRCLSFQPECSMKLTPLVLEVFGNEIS
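VDR–SRC2-3 interaction, FP format. Cmpds 23 nl via pintool, brief spin, 2 h ambient incubation.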
* hit, by the source's call; u = inconclusive; & = joins results of further samples. On the % scale 0 is the no-effect control and ±100 the full control effect; potency means the concentration at half of the fitted maximal effect. Some of the compounds tested; the hit share may differ from the screen's.

SMILES | VDR inhibitor
CCCc1cc(NC(=O)CCl)n(-c2ccccc2)n1 | -4.0%
CCS(=O)(=O)N1CCC(C(=O)Oc2ccccc2Br)CC1 | 6.3%
O=C(Nc1ccc(F)cc1)C(=O)c1cn(CC(=O)N2CCOCC2)c2ccccc12 | -3.3%
Cc1ccc(C)c(S(=O)(=O)NC(CC(C)C)C(=O)O)c1 (stereo not given) | -6.9%
O=C(O)c1cccnc1SCc1ccccc1 | 6.2%
O=C(CCC(=O)c1cccs1)OCC(=O)c1ccccc1 | 8.4%
Cc1ccc(CC(CC(=O)O)C(=O)NCc2ccccc2)cc1 (stereo not given) | -7.8%
CC(C)C(NS(=O)(=O)c1ccc2c(c1)C(C)(C)C(=O)N2C)C(=O)NCc1ccc(F)cc1 (stereo not given) | -16.5%
COC(=O)[C@@H](NC(=O)Nc1ccccc1F)C(C)C | 3.3%
S=C(NCCN1CCOCC1)Nc1ccc(Cl)cc1 | -2.2%
CC(C)(C)c1ccc(OCc2ccc(C(=O)N3CCOCC3)o2)cc1 | -7.6%
Brc1ccc(OCc2nnc3n2CCC3)cc1 | -7.1%
O=C(Nc1c(Cl)cc(Cl)cc1C(=O)NCc1cccnc1)c1ccc(Cl)cc1Cl | 5.2%
CCn1c(=O)ccc2cc([N+](=O)[O-])ccc21 | -9.1%
O=C(COc1ccc(/C=N/NC(=O)c2ccncc2)cc1)Nc1ccccc1 | -8.2%
CC(C)CN(C(=O)COC(=O)Cc1c[nH]c2ccccc12)c1c(N)n(Cc2ccccc2)c(=O)[nH]c1=O | -12.0%
COc1ccccc1CNc1cc(C)ccn1 | -9.9%
COc1ccc(-c2cc(OC(=O)c3ccccc3C)c3c(C)oc(C)c3c(=O)c2)cc1 | u
Nc1nc2c3ccccc3nc(C3CC3)n2n1 | 5.2%
O=c1nc2n(c3c4c(sc13)CCC4)CCC2 | 4.2%

A draw from above in order of SMILES length, rising:
SMILES | VDR inhibitor
O=c1nc2n(c3c4c(sc13)CCC4)CCC2 | 4.2%
O=C(CCC(=O)c1cccs1)OCC(=O)c1ccccc1 | 8.4%
COC(=O)[C@@H](NC(=O)Nc1ccccc1F)C(C)C | 3.3%
Cc1ccc(C)c(S(=O)(=O)NC(CC(C)C)C(=O)O)c1 (stereo not given) | -6.9%

Remaining list, next part:
SMILES | VDR inhibitor
O=C(O)c1ccc2c(c1)C(=O)N(c1ccc(OCc3ccccc3)cc1)C2=O | 10.9%
CCC(C(=O)NCCc1ccc(OC)c(OC)c1)n1nc(C)c2sc3ccccc3c2c1=O (stereo not given) | -4.2%
CC(=O)NC1C(OCc2ccccc2)OC(CO)C(OC(C)=O)C1OC(C)=O (stereo not given) | -7.4%
Cn1c(=O)n(Cc2ccc(F)cc2)c(=O)c2c1nc1n2CCCN1Cc1ccccc1 | -6.7%
COc1ccccc1-c1nc(NCc2cccs2)c2ccccc2n1 | u
COc1ccc(NC(=O)c2cc(-c3cc(C)ccc3O)n[nH]2)cc1Cl | -22.4%
COC(=O)C1CCCN1S(=O)(=O)c1ccccc1NC(=O)c1cc(OC)c(OC)c(OC)c1 (stereo not given) | 6.6%
S=c1nc(-c2ccc(Cl)cc2)[nH][nH]1 | -28.6%
CCCS(=O)(=O)N1CCN(Cc2ccc(OCc3ccccc3)c(OC)c2)CC1 | -0.4%
CCCc1n[nH]c2c1/C(=N\O)CCC2 | -1.8%
Cc1ccc2cc(NC(=O)c3ccccc3)ccc2n1 | 6.6%
CCc1cccc(C)c1NC(=O)CCOc1ccccc1 | -12.1%
O=S(=O)(c1ccc(F)cc1)N1CCN(CC(O)COCc2ccccc2)CC1 (stereo not given) | -13.8%
Cc1ccc(-c2cc(C(=O)NC3CCN(Cc4ccccc4)CC3)c3ccccc3n2)cc1 | -7.8%
Cc1c(C(=O)O)oc2c(F)cccc12 | 0.5%
O=C(CCN1C(=O)C2CC=C(Cl)CC2C1=O)NCc1ccccc1 (stereo not given) | 5.6%
COc1ccc(C(=O)NCC(=O)OCC(=O)N2CCC(C)CC2)cc1OC | 7.1%
CCOc1ccc(/C=C/C(=O)N(CC)CC(=O)Nc2ccc3c(c2)OCCO3)cc1OC | 4.3%
COCC1CCN(Cc2c(C(=O)N3CCN(C4CCCCC4)CC3)nc3ccccn23)C1 (stereo not given) | 0.0%
O=S(=O)(c1ccc(F)cc1)N1CCN(c2nc(-c3ccccc3)nc3ccccc23)CC1 | 3.5%

Compounds from the list above that have a furan ring, fused or not, in the order listed:
SMILES | VDR inhibitor
CC(C)(C)c1ccc(OCc2ccc(C(=O)N3CCOCC3)o2)cc1 | -7.6%
COc1ccc(-c2cc(OC(=O)c3ccccc3C)c3c(C)oc(C)c3c(=O)c2)cc1 | u
Cc1c(C(=O)O)oc2c(F)cccc12 | 0.5%

Next compounds.
SMILES | VDR inhibitor
O=C(C1=C(O)C(=O)N(CC2CCCO2)C1c1ccccc1[N+](=O)[O-])c1ccco1 (stereo not given) | -7.3%
O=C(Nc1ccccc1)N1CCCN(Cc2ccccc2F)C1 | 16.8%
COc1ccccc1/C=N/NC(=O)CCSc1ccccc1 | -4.5%
Cn1nnnc1Sc1ncnc2scc(-c3cccc(C(F)(F)F)c3)c12 | u
COc1ccc(-c2noc(-c3ccc(N4CCOCC4)c([N+](=O)[O-])c3)n2)cc1 | 6.4%
CCOC(=O)C(NC(=O)c1ccc(OC)cc1)(OCC1(CC)COC1)C(F)(F)F (stereo not given) | 11.6%
COc1ccccc1N(CC(=O)NC1CCCC1)C(=O)CCC(=O)Nc1cc(C)on1 | 0.3%
COc1ccc2oc(C(=O)OCC(=O)N(C)c3c(N)n(Cc4ccccc4)c(=O)[nH]c3=O)c(C)c2c1 | -19.4%
COc1ccc(-c2noc(CCCC(=O)Nc3ccc(C(N)=O)cc3)n2)cc1OC | 4.8%
CCOc1ccc(OCCC(=O)OCC(=O)Nc2ccc(N3CCOCC3)cc2)cc1 | 5.8%
COc1ccc(C(=O)C2CN(c3ccccc3)CC2c2ccc(Cl)cc2)cc1 (stereo not given) | 4.7%
C/C=C(/C)C(=O)Nc1cccc(C2=NOC3(C2)C[C@@H](C(N)=O)N(C(=O)CCCCC)C3)c1 (stereo not given in full) | -11.5%
CN(C(=O)CN1C(=O)S/C(=C\c2ccc(F)cc2)C1=O)C1CCS(=O)(=O)C1 (stereo not given) | -5.3%
CCc1ccc2c(c1)C(NC(C)=O)C(=O)N2CCN1CCOCC1 (stereo not given) | u
O=C(Nc1nnc(S(=O)(=O)N2CCCc3ccccc32)s1)c1ccccc1Cl | -1.4%
COc1ccc(N2CC(C(=O)Nc3c(C(N)=O)oc4ccccc34)CC2=O)cc1 (stereo not given) | -16.9%
C[C@@H](NC(=O)c1nc[nH]c1C(=O)NCCCCCNC(=O)OC(C)(C)C)c1ccccc1 | -10.1%
CC(C)[C@H](CO)Nc1nc(Nc2cccc(Cl)c2)c2ncn(C(C)C)c2n1 | 2.5%
Cc1ccc(S(=O)(=O)NC(=O)c2cccc(Br)c2)cc1 | -13.5%
Cc1ccc(NC(=O)CCC(=O)NNC(=O)c2cccc([N+](=O)[O-])c2)cc1C | -1.1%
Cc1cc(NC(=O)C2CC(=O)N(c3ccc(F)cc3)C2)no1 (stereo not given) | 9.3%
Cc1ccc(CN2CC(C(=O)Nc3ccc(C)cn3)CC2=O)cc1 (stereo not given) | 10.4%
O=C(c1cnn2c1NC(c1ccc(Br)cc1)CC2C(F)(F)F)N1CCN2CCCC2C1 (stereo not given) | 0.3%
CCN(c1ccccc1)c1nnc(NC(=O)Nc2ccc(Br)c(C)c2)s1 | 10.3%
O=C(CSc1ccccn1)NCc1ccc2c(c1)OCO2 | 5.6%
O=C(/C=C/c1ccc([N+](=O)[O-])cc1)OCC(=O)c1ccc[nH]1 | 7.5%
COc1ccccc1CNC(=O)C1CCN(c2ncnc3c2nc2n3CCCCC2)CC1 | 10.5%&7.4%
CCN(CC)c1ccc(NC(=O)C(NS(=O)(=O)c2cccs2)C(C)C)c(C)c1 (stereo not given) | -11.2%
CCCCC(=O)Nc1cc(C)c(NC(=O)c2cccs2)cn1 | 5.2%
O=C(Nc1ccc(COc2ccccc2)cc1)Oc1ccccc1N1CCOCC1 | 19.8%
CCn1c(SCc2ccc(C(=O)Nc3nccs3)cc2)nnc1-c1ccc(N)cc1 | 7.5%
COc1ccc(NC2CCCN(C(=O)CCc3cn[nH]c3)C2)cc1 (stereo not given) | 12.5%
O=S(=O)(Nc1ccc(-c2ccc(N3CCOCC3)nn2)cc1)c1cc(Cl)ccc1Cl | -7.6%
CN(C)S(=O)(=O)c1ccc(NC(=O)COC(=O)C2COc3ccccc3O2)cc1 (stereo not given) | 12.2%
CCOC(=O)C1=C(C)N=c2s/c(=C/c3ccc(OCC(=O)O)cc3)c(=O)n2C1c1cc(OC)c(OC)c(OC)c1 (stereo not given) | u
CCN(C(=O)COC(=O)/C=C/c1cnc2ccccc2n1)C1CCS(=O)(=O)C1 (stereo not given) | -7.0%
CCOC(=O)c1c(C)[nH]c(C)c1C(=O)CSc1nc2ccccc2c(=O)n1-c1ccccc1C | -4.6%
O=C(Nc1nn(Cc2ccccc2F)cc1Br)c1cccs1 | 4.0%
CCOC(=O)N1CCN(C(=O)c2cccc(NC(=O)c3ccco3)c2)CC1 | -18.1%
CCCCCCCCCCOC(=O)Cn1c(COc2ccc(OC)cc2)[n+](C)c2ccccc21 | -10.6%&11.3%

Reprinted at random: 4 entries already listed
SMILES | VDR inhibitor
Cc1ccc(CN2CC(C(=O)Nc3ccc(C)cn3)CC2=O)cc1 (stereo not given) | 10.4%
COc1ccc(NC2CCCN(C(=O)CCc3cn[nH]c3)C2)cc1 (stereo not given) | 12.5%
CCOC(=O)N1CCN(C(=O)c2cccc(NC(=O)c3ccco3)c2)CC1 | -18.1%
O=C(CSc1ccccn1)NCc1ccc2c(c1)OCO2 | 5.6%

Next part:
SMILES | VDR inhibitor
Cc1ccc(NC(=O)CN(C)C(=O)CSc2nc(C)cs2)cc1 | -10.9%
CCC(C)OC(=O)/C(C#N)=C\c1ccc(-c2ccccc2Cl)o1 (stereo not given) | -21.0%
COc1ccc2nc(Cl)c(C#N)cc2c1 | 3.1%
CC(=O)n1nnc2ccccc21 | -7.2%
Cc1ccc(-c2cc(C(=O)N/N=C/c3ccoc3)c3ccccc3n2)cc1 | 16.4%
Cc1cc(C)nc(NCCC(=O)O)n1 | 16.1%
CC(C)(C)C(=O)COC(=O)c1ccc(N)c([N+](=O)[O-])c1 | 2.6%
COCCNC(=S)N/N=C(\C)c1ccc(OC(F)F)cc1 | -6.7%
Cc1cc(NCCCN2CCOCC2)n2ncc(-c3ccccc3)c2n1 | -2.8%
NC1=NC(=Nc2ccc(Br)cc2)c2ccccc21 | u
NC(=O)c1cc2c3ccccc3ccn2c1-c1ccccc1 | u
CC(C)Oc1nc(-c2ccccc2Cl)nc2ccccc12 | 13.0%
CN(Cc1ccco1)S(=O)(=O)c1nnc(NC(=O)c2ccccc2)s1 | u
N#Cc1ccc(/C=C/C(=O)c2ccco2)cc1 | u
Cc1ccc2c(c1)N(C(=O)NC1CCCCC1)C(C)(C)CC2C (stereo not given) | -17.6%
O=C(NCCCC1CCCC1)C1CCC(=O)N(Cc2ccc(Cl)cc2)C1 (stereo not given) | -1.4%
COc1cc(/C=N/NC(=O)c2ccoc2C)cc(OC)c1O | -3.0%
CCOC(=O)N1CCN(C(=O)C(C)(C)Oc2ccc(Cl)cc2)CC1 | -5.9%
COc1ccc(NC(=O)C2CCN(S(=O)(=O)c3ccc(OC)c(OC)c3)CC2)cc1 | 1.2%
O=C1N[C@H](Cc2ccccc2)COC(=O)[C@H](Cc2ccc(F)cc2)CC/C=C/C[C@H]1CC(=O)N(CCO)Cc1ccccc1 | -12.4%
Cc1ccc(NC(=O)C(Cc2ccccc2)NS(=O)(=O)c2ccc3c(c2)oc(=O)n3C)cc1C (stereo not given) | 5.9%
O=C(NCc1ccncc1)C12CC3CC(CC(C3)C1)C2 | -2.0%
CCc1ccc2occ(CC(=O)Nc3ccc(C)c(C)c3)c2c1 | 17.4%
Cc1csc2nc(COC(=O)c3ccc(NC(=O)COc4ccccc4F)cc3)cc(=O)n12 | 8.1%
CC(C)OC(=O)CSc1nc(N)c(C#N)cc1C#N | 10.6%
COc1cccc2c(=O)c(C(=O)NCCc3ccccc3)c[nH]c12 | -6.4%
CCN(CC(=O)NCc1ccc2c(c1)OCO2)S(=O)(=O)c1ccc(F)cc1 | 29.5%
CC(C)N1CCC(N2CCN(Cc3cnc(-c4ccccc4)s3)CC2CCO)CC1 (stereo not given) | -15.2%
C/C(=N\NC(=O)COc1c(C)cccc1C)c1cccs1 | 4.9%
Cc1cccc(-c2noc(CN(C(=O)c3ccc(Br)o3)C(C)C)n2)c1 | -1.1%
CN(C(=O)c1ccc(OC2CCN(C(=O)c3cccnc3)CC2)cc1)C1CCCCC1 | -0.4%
COc1ccc(-c2csc(N3CCN(C(=O)c4ccco4)CC3)n2)cc1 | 7.8%
CCOC(=O)c1sc2nc(C)nc(SCC(=O)N(C)C3CCS(=O)(=O)C3)c2c1C (stereo not given) | -19.4%
C=CCOC(=O)C1=C(C)NC(=O)NC1C1CC=CCC1 (stereo not given) | 5.0%
CC(=O)c1cn(CC(=O)Nc2ccc(C)cc2C)c2ccccc12 | -7.2%
CC1(COS(N)(=O)=O)CCCCC1 | -11.7%
Cc1cc(C)n(C(=O)CCNC(=O)c2ccccc2Cl)n1 | 21.9%
COc1cccc(/C=C/C(=O)OCC(=O)NC(=O)NC2CCCC2)c1 | -17.8%
Cc1scc(C(=O)NNC(=S)NC(C)c2ccccc2)c1C (stereo not given) | -2.5%
N/C(=N\OC(=O)c1ccc(Cl)cc1)c1nonc1N | 7.5%
O=C(CCN1CCc2ccccc2C1)Nc1ccccc1F | -8.5%
CCOc1ccccc1CNn1nnnc1N | -5.1%
O=C(C[C@H]1C/C=C\CC[C@H](Cc2ccc(F)cc2)C(=O)OC[C@H]2CCCN2C1=O)N[C@@H](CO)Cc1ccccc1 | 9.1%
